# Assay outcomes deposited in PubChem by National Center for Advancing Translational Sciences (NCATS).
# 2A StopGo – High Throughput Screening for Foot and Mouth Disease Virus Antivirals; Potency, µM (series often up to 57.9 µM), for the others: top-dose signal change, negative = less light; human cells with a luciferase reporter of 2A StopGo recoding; control for the full effect not named in the record; AID 1159524, 2015; 1.2% of 410,000 active; active = well fitted falling curve with a large enough effect; inconclusive = small, poorly fitted or top-dose-only effect; inactive = no such curve, though single readings can be large or run the other way; tested in HEK293T cells; also: nearly all actives have a fitted effect of over 45% in size; luciferase light after 4 h
# RE007 growth inh – qHTS Assay for Inhibitors of the HIV-1 protein Vpr. S. pombe RE007 Vpr strain, BacTiter-Glo ATP luminescence, 24 h; control for the full effect not named in the record. Potency, µM (top dose mostly 92.2 µM), for the others: at the highest dose activity change, negative = less growth. 0.21% of 360,000 active. AID 651644, 2012; active = well fitted falling curve with a large enough effect; inconclusive = small, poorly fitted or top-dose-only effect; inactive = no such curve, though single readings can be large or run the other way;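 also: nearly all actives have a fitted effect of over 50% in size; the assay follows cell death caused by Vpr and the record does not say whether a fall means rescue or toxicity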
#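 Fission yeast RE007 carrying one integrated HIV-1 vpr copy, seeded at OD 0.01 in PMG+AL medium with 23 nL pinned compound. Grown 24 h at 30 degrees; viability read by BacTiter-Glo luminescence after 5 min.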
# The depositor's hits bear a star; ? = inconclusive; [ ] = another dose, or the depositor's remark. % is scaled to controls: 0 for no effect and ±100 for the full control effect; potency is read from the fitted curve at half-maximal effect. This is a subset. The share of hits here may be higher or lower than overall.
# Each structure is followed by: 2A StopGo | RE007 growth inh
> O=C1CCC[C@H]2c3[nH]c4ccccc4c3CCN12
  -7% | -8%
> C[C@H](O)[C@@H]1C(=O)N2CCc3ccc(N4CCN(C)CC4)cc3[C@@H]2C[C@@H]1N(C)C(=O)c1ccc(C#N)cc1
  -19% | 6%
> Cc1cc(C(=O)N2CCCC2(C)C(=O)NCC(C)C)nn1C(C)(C)C (stereo not drawn)
  -8% | 11%
> S=c1nc(-c2ccccn2)c(-c2ccccn2)n[nH]1
  -7% | 7%
> CC(=O)Nc1cc(-c2cccnc2)cn2c(-c3ccc(F)cc3)cnc12
  -6% | 11%[18.4 µM]
> CCCCCCCCN1C(=O)[C@H](CC(=O)N2CCOCC2)C[C@@]2(C(=O)OC)CCCCC=C12
  -22% | -7%
> Cc1cccnc1C(NC(=O)C1CCN(CCOc2ccc(Cl)cc2Cl)CC1)c1ccc(Cl)cc1 (stereo not drawn)
  ? | -12%
> C=C1[C@H](C)CN(S(=O)(=O)C(C)(C)C)[C@H]1CCO
  -9% | 26%
> COc1cccc(C(O)c2ncc(-c3cccc(F)c3)[nH]2)c1 (stereo not drawn)
  65%[activator] | -17%
> Cc1cccc2c(=O)n(C(=O)c3ccccc3)c(N)nc12
  -5% | -12%
> CCOC(=O)C1CCCN(C(=O)c2ccccc2OC(F)(F)F)CC1 (stereo not drawn)
  -7% | -7%[18.4 µM]
> CCCN1CCN(C(=O)c2ccc(CS(=O)c3ccc(Br)cc3)o2)CC1 (stereo not drawn)
  0% | -4%
> C(CCN1CCOCC1)CN1CCOCC1
  -1% | 9%
> CC(=O)Nc1ccc(NC(=O)c2ccc(S(=O)(=O)N3CCCCCC3)cc2)cc1
  -16% | -5%
> c1ccc(COc2ncnc3c2ncn3CCCNCc2ccc3c(c2)OCO3)cc1
  -21% | -17%
> COc1cccc(C(=O)NCCN2CCC(n3c(=O)[nH]c4ccccc43)CC2)c1
  -20% | -9%
> COc1cc2c(=O)n(C)c3ccccc3c2cc1OC
  -27% | -3%
> Cc1ccc(F)c(S(=O)(=O)NC(=O)C2(C)CCN2C(=O)CC2CCCCC2)c1 (stereo not drawn)
  -10% | -9%
> CC12C=CC(=O)C=C1CCC1C2C(=O)CC2(C)C1CCC2(O)C(=O)CO (stereo not drawn)
  -14% | 22%
> O=C(O)C1CCN(C(=O)c2ccc(S(=O)(=O)N3CCCCCC3)cc2)CC1
  -15% | 11%
> Cc1cc(OCC(=O)OCC(=O)N2CCCc3ccccc32)ccc1Cl
  -24% | -9%
> CCOC(=O)C1(C)CCCN(C(=O)c2ccc(C#N)cc2)C1 (stereo not drawn)
  2% | 12%
> CC(=O)Nc1cccc(-c2csc(C(O)c3ccccc3)n2)c1 (stereo not drawn)
  9% | 10%
> CC1(c2nnc(Cc3ccccc3)o2)CC(c2ccncc2)=NO1 (stereo not drawn)
  -9% | 5%
> CC1(C(=O)Nc2ccc(Cl)c(Cl)c2)CCN1Cc1cc2ccccc2o1 (stereo not drawn)
  -10% | 1%[18.4 µM]
> CCc1nc2ccc(C(=O)Nc3cccc(OC)c3)cn2c1N(CC)Cc1cccc(Br)c1
  -3% | ?
> COc1cccc(/C=C/C(=O)OCC(=O)N2c3ccccc3CC2C)c1 (stereo not drawn)
  0% | -2%
> CCN1C[C@@H]2[C@@H]3C(=O)N(Cc4ccccc4)C(=O)[C@@H]3[C@](CC)(C1=O)N2C(=O)c1ccccc1
  17% | -11%
> C[C@H](CO)N1C[C@H](C)[C@H](CN(C)C(=O)c2ccc(N3CCN(C)CC3)cc2)OCc2cnnn2CCCC1=O
  -11% | 33%
> COC(=O)c1ccc2nc(-c3cccc(Br)c3)c(Cc3ccc(OC)cc3C)n2c1
  8% | -2%
> CC(=O)O[C@@H]1/C=C/[C@](C)(O)C[C@@H](C)C/C=C/[C@H]2[C@H](O)C(C)=C(C)[C@H]3[C@H](Cc4ccccc4)NC(=O)[C@@]123
  -18% | 19%
> CCCCNC(=O)C1C(c2ccc(OC)cc2)=Nc2ccccc2N1C(=O)Cc1cc(OC)cc(OC)c1 (stereo not drawn)
  9% | 2%
> CCCCNC(=O)C[C@@H]1C[C@@]2(C(=O)OCC)CCC=C2N(Cc2ccc3c(c2)OCO3)C1=O
  1% | -6%
> NC(=O)c1ncn([C@@H]2O[C@H](CNCc3cccn3-c3ccncc3)[C@@H](O)[C@H]2O)n1
  0% | -13%
> CCC(=O)N1CCC(C)(C(=O)Nc2cc(OC)c(OC)c(OC)c2)C1 (stereo not drawn)
  -16% | -1%[18.4 µM]
> C/C(=C\C(=O)OCCCCCCCCC(=O)O)C[C@@H]1OC[C@H](C[C@@H]2O[C@H]2[C@@H](C)[C@H](C)O)[C@@H](O)[C@H]1O
  -14% | 15%
> c1ccc2c(c1)oc1c(-c3ccc4nccn4c3)cccc12
  14% | -28%
> COc1ccccc1C#CC1=CC(=O)C[C@H](c2ccc(F)cc2)C1
  11% | 8%
> Nc1ccccc1-c1nc2ccncc2[nH]1
  40%[activator] | -8%
> Cc1ccc(Cl)cc1NCN1C(=O)c2ccccc2C1=O
  -23% | -17%
> COc1ccccc1C(=O)NC(=O)COC(=O)c1cnccn1
  0% | 5%
> O=c1c2ccccc2nc(CBr)n1-c1ccc(Cl)cc1
  0% | 3%
> COc1ccccc1-c1cnc(C(O)c2cc(C)ccc2C)[nH]1 (stereo not drawn)
  -7% | -27%
> Cc1cnc(NC(=O)c2cc(-c3ccccc3)nn2-c2ccccc2)s1
  -14% | 47%
> Cc1ccc(-n2nc(C)c3c2C(Br)C(C)(C)CC3=O)nc1 (stereo not drawn)
  4% | 4%
> C[C@@H](NC(=O)C(=O)c1c[nH]c2ccccc12)c1ccccc1
  -13% | -8%
> COc1ccc(OC)c(NC(=O)C2(C)CCN2C(=O)C2(c3ccc(Cl)cc3)CCC2)c1 (stereo not drawn)
  0% | 1%
> CCCCn1nnnc1C(c1cccc2ccccc12)N1CCN(C/C=C/c2ccccc2)CC1 (stereo not drawn)
  -2% | -12%
> Cc1cnc(CNC(=O)c2ccc3sc([C@H]4C[C@H](O)[C@@H](CO)O4)nc3c2)cn1
  -18% | 11%
> OC1c2cc(Cl)cc(Cl)c2N=C2CCCN21 (stereo not drawn)
  -16% | -9%[18.4 µM]
> CC(=O)Nc1ccc(NC(=O)CSc2nc(=O)n(CCCN3CCOCC3)c3c2CCC3)cc1
  -12% | -6%
> CC(C)n1nnnc1C1c2ccccc2C(=O)N1CCOc1ccccc1 (stereo not drawn)
  57%[activator] | -2%
> CCOC(=O)C(=O)N(C)c1c(CC)nc2c(OCCC3CCCCC3)cccn12
  -14% | -6%
> O=S(=O)(N=C1C=CC(=NS(=O)(=O)c2ccccc2)c2ccccc21)c1ccccc1
  ? | -11%
> CCCOc1ccc(F)cc1-c1cc(C(=O)Nc2ccc(C)c(NS(C)(=O)=O)c2)[nH]n1
  35µM* | 0%[18.4 µM]
> C[C@H](O)[C@@H]1C(=O)N2CCc3c([nH]c4ccccc34)[C@@H]2C[C@@H]1N(C)C(=O)NC1CCCCC1
  -1% | 20%
> C[C@@H]1CN([C@@H](C)CO)C(=O)CCCn2nncc2CO[C@H]1CN(C)C(=O)Nc1cccc(Oc2ccccn2)c1
  5% | -28%
> COc1ccc(NC(=O)CSc2nnc3n2CCCCC3)cc1S(=O)(=O)N(C)C
  -6% | -17%
> O[C@H]1C[C@H](c2ccc(Cl)cc2)N(CC2CCCCC2)C[C@@H]1n1cc(-c2ccc(F)cc2)nn1
  -18% | -10%
> O=C1C(=Cc2ccc(F)cc2)CCc2ccccc21
  -6% | ?

# Four of the compounds above, with each value named:
> C[C@H](O)[C@@H]1C(=O)N2CCc3c([nH]c4ccccc34)[C@@H]2C[C@@H]1N(C)C(=O)NC1CCCCC1
  2A StopGo: -1%
  RE007 growth inh: 20%

> C[C@@H]1CN([C@@H](C)CO)C(=O)CCCn2nncc2CO[C@H]1CN(C)C(=O)Nc1cccc(Oc2ccccn2)c1
  2A StopGo: 5%
  RE007 growth inh: -28%

> COc1ccc(NC(=O)CSc2nnc3n2CCCCC3)cc1S(=O)(=O)N(C)C
  2A StopGo: -6%
  RE007 growth inh: -17%

> O[C@H]1C[C@H](c2ccc(Cl)cc2)N(CC2CCCCC2)C[C@@H]1n1cc(-c2ccc(F)cc2)nn1
  2A StopGo: -18%
  RE007 growth inh: -10%

# A second format for some results above:
canonical_smiles,2A StopGo,RE007 growth inh
COc1ccc(OC)c(NC(=O)C2(C)CCN2C(=O)C2(c3ccc(Cl)cc3)CCC2)c1 (stereo not drawn),0%,1%
CCCCn1nnnc1C(c1cccc2ccccc12)N1CCN(C/C=C/c2ccccc2)CC1 (stereo not drawn),-2%,-12%
Cc1cnc(CNC(=O)c2ccc3sc([C@H]4C[C@H](O)[C@@H](CO)O4)nc3c2)cn1,-18%,11%

# Carrying on.
# Each structure is followed by: 2A StopGo | RE007 growth inh
> CCCCC(=O)N(C)c1c(CC)nc2c(OCC(=O)c3ccc(Cl)cc3Cl)cccn12
  -15% | -11%
> COc1ccc(OC)c(NC(=O)C2(C)CCN2C(=O)CCC2CCCC2)c1 (stereo not drawn)
  ? | -3%[18.4 µM]
> O=S1(=O)C[C@@H](N2CC[C@@H](O)C2)[C@H](COCc2ccccc2)N1
  -11% | 14%
> CCCCN(C)c1c(C)nc2ccc(C(=O)NC3CCN(C)CC3)cn12
  3% | -20%
> O=C(COC(=O)CNC(=O)c1ccccc1)NC12CC3CC(CC(C3)C1)C2
  -11% | 0%
> CC1(C(=O)NS(=O)(=O)c2ccccc2)CCN1C(=O)COc1ccc(Cl)cc1 (stereo not drawn)
  -7% | 3%
> O=C(c1cc(COc2cccc(C(F)(F)F)c2)on1)N1CCCC1
  34%[activator] | 0%
> CCN1C[C@@H]2[C@@H]3C(=O)N(C)C(=O)[C@@H]3[C@](C)(C1=O)N2C(=O)c1ccc(Cl)cc1
  -15% | -8%
> OC[C@@H]1CN(Cc2cccc(C(F)(F)F)c2)C[C@H](n2cnc3c(NCc4ccco4)ncnc32)O1
  0% | 14%
> COc1ccc(CN2C(=O)c3ccccc3C2c2nnnn2Cc2ccccc2)cc1 (stereo not drawn)
  1% | 28%
> CCOc1cc2[nH]c(=S)n(CCC(=O)NC3CCCCC3)c(=O)c2cc1OCC
  0% | 8%
> C[C@@H]1CNC(=O)c2c(C(=O)N[C@@H](Cc3c[nH]c4ccccc34)C(=O)OC(C)(C)C)ncn21
  -6% | 2%
> Cc1cc(C)cc(NC(=O)COC(=O)C2CC3C=CC2C3)c1 (stereo not drawn)
  -5% | -20%
> O=c1[nH]c(Nc2ccccn2)cc2ccccc12
  57%[activator] | 3%
> Cc1sc2ncnc(N3CCC(C(=O)N(C)CC(=O)Nc4cccc(F)c4)CC3)c2c1C
  18µM* | 20%
> Cc1ccc(S(=O)(=O)N(C)C[C@H]2Oc3ncc(-c4ccccc4)cc3C(=O)N([C@@H](C)CO)C[C@@H]2C)cc1
  22% | 4%
> CNc1nc(-c2ccccc2)c2sccc2n1
  -6% | 10%[18.4 µM]
> COc1ccc(CCC(=O)O)c(C(CC(=O)O)C(=O)O)c1OS(=O)(=O)c1ccc(C)cc1 (stereo not drawn)
  0% | 12%
